# Env fusion inh: inhibitors of HIV-1 Env-driven cell-cell fusion, primary screen, HeLa-JRFL effector, CEM21 target cells, luciferase; inhibition, % at 12.3 µM; 1.1% of 360,000 active; AID 651610, 2012;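 active means mean replicate inhibition score of at least 50 and every replicate individually at or above 50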;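 further: 0% = plate neutral controls and 100% = maraviroc near 300 nM; one replicate is shown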
# UUG fidelity: modulators of yeast start codon fidelity, primary screen, whole organism, S. cerevisiae, single point, plate reader; S. cerevisiae UUG-firefly luciferase reporter, luminescence/redox ratio; activity score, % at 18.7 µM; 0.13% of 350,000 active;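 active means replicate mean at a twofold rise or more, about +100% in these data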;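 further: firefly luciferase made from a UUG start codon reports start codon fidelity; reporter light over untreated wells divided by growth signal over untreated wells; some hits fall short of that in this replicate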
# Starred values were filed as active, the others as inactive; [ ] = another dose, or the depositor's remark. The list is partial; count on the stated rates, not on these rows.
Env fusion inh	UUG fidelity	SMILES
32[16.7 µM]	5	Cc1ccc(S(=O)(=O)Nc2ccc3c(c2)C(=O)N([C@H](C)CO)C[C@H](C)[C@H](CN(C)Cc2ccc(C(F)(F)F)cc2)OCCCC[C@H](C)O3)cc1
-18[16.7 µM]	-7	C[C@@H]1CCCCO[C@@H](CN(C)C(=O)Nc2ccc(F)cc2)[C@H](C)CN([C@@H](C)CO)C(=O)c2cc(NC(=O)Nc3ccc(F)cc3)ccc2O1
15[16.7 µM]	3	COc1ccc(S(=O)(=O)N(C)C[C@H]2Oc3ccc(NC(=O)CCCCCC(=O)Nc4ccccc4N)cc3CC(=O)N([C@H](C)CO)C[C@@H]2C)cc1
12[16.7 µM]	11	Cc1noc(C)c1NC(=O)N(C)C[C@H]1Oc2ccc(NC(=O)NC(C)C)cc2CC(=O)N([C@@H](C)CO)C[C@@H]1C
31[16.7 µM]	-1	Cc1ccc(S(=O)(=O)Nc2ccc3c(c2)CC(=O)N([C@@H](C)CO)C[C@H](C)[C@H](CN(C)S(=O)(=O)c2cccs2)O3)cc1
-3[16.7 µM]	-4	C[C@@H]1CN([C@@H](C)CO)C(=O)c2cc(-c3cccc(C#N)c3)cnc2O[C@H]1CN(C)Cc1ccccc1
4[16.7 µM]	8	C[C@@H]1CN([C@@H](C)CO)C(=O)c2cc(C#Cc3cccnc3)cnc2O[C@H]1CN(C)C
13[16.7 µM]	6	Cc1noc(C)c1NC(=O)Nc1ccc2c(c1)C(=O)N([C@H](C)CO)C[C@H](C)[C@@H](CN(C)CC1CCCCC1)OCCCC[C@@H](C)O2
11[16.7 µM]	-5	C[C@H](CO)N1C[C@H](C)[C@@H](CN(C)S(=O)(=O)c2ccccc2)Oc2ccc(NC(=O)Cc3cn(C)c4ccccc34)cc2C1=O
30	-2	C[C@H]1CN([C@@H](C)CO)C(=O)CCCn2cc(nn2)CO[C@@H]1CN(C)C(=O)C1CC1
16[16.7 µM]	-3	C[C@@H]1CN([C@H](C)CO)C(=O)c2cc(NC(=O)Nc3ccc(C(F)(F)F)cc3)ccc2O[C@@H](C)CCCCO[C@@H]1CN(C)C(=O)c1ccccc1
31[16.7 µM]	8	C[C@@H]1CCCCO[C@@H](CN(C)C(=O)CCC(F)(F)F)[C@@H](C)CN([C@H](C)CO)C(=O)c2cc(NC(=O)C3CCCCC3)ccc2O1
0[16.7 µM]	17	C[C@H](CO)N1C[C@H](C)[C@H](CN(C)C(=O)CCCN(C)C)OCCCC[C@H](C)Oc2ccc(NS(=O)(=O)c3cn(C)cn3)cc2C1=O
-36[16.7 µM]	-2	C[C@@H]1CN([C@@H](C)CO)C(=O)Cc2cc(NC(=O)Nc3cccc4ccccc34)ccc2O[C@@H]1CN(C)Cc1ccc(Oc2ccccc2)cc1
8[16.7 µM]	3	C[C@H]1CCCCO[C@H](CN(C)C(=O)NC2CCCCC2)[C@@H](C)CN([C@@H](C)CO)C(=O)c2cc(NS(C)(=O)=O)ccc2O1
3[16.7 µM]	-14	O=C(C[C@@H]1CC[C@@H](NC(=O)Nc2ccccc2)[C@@H](CO)O1)NCc1ccccn1
-8[16.7 µM]	20	COc1ccc(NC(=O)N(C)C[C@H]2Oc3ccc(NC(=O)Cc4cn(C)c5ccccc45)cc3CC(=O)N([C@H](C)CO)C[C@@H]2C)cc1
9[16.7 µM]	9	CCCC(=O)Nc1ccc2c(c1)C(=O)N(C)[C@H]1CC[C@H](CC(=O)OC)O[C@H]1CO2
-9[16.7 µM]	-13	C[C@@H]1CN([C@@H](C)CO)C(=O)c2cccc(NS(C)(=O)=O)c2O[C@@H]1CN(C)S(C)(=O)=O
-31[16.7 µM]	-6	C[C@@H]1CN([C@@H](C)CO)S(=O)(=O)c2ccc(C#Cc3ccncc3)cc2O[C@@H]1CN(C)C(=O)C1CCCCC1
5[16.7 µM]	-5	CNC[C@H]1Oc2ccc(NS(=O)(=O)c3cccs3)cc2CC(=O)N([C@H](C)CO)C[C@H]1C
18[16.7 µM]	-6	CCCC(=O)Nc1ccc2c(c1)C(=O)N(C)C[C@H](OC)[C@H](C)CN(C(=O)c1ccncc1)[C@@H](C)CO2
1[16.7 µM]	14	CCCC#Cc1cnc2c(c1)C(=O)N([C@@H](C)CO)C[C@@H](C)[C@@H](CN(C)C(=O)Cc1ccccc1)O2
-1[16.7 µM]	5	COCC(=O)N1C[C@@H](C)[C@@H](OC)CN(C)C(=O)c2ccc(NC(=O)Nc3ccccc3)cc2OC[C@@H]1C
0[16.7 µM]	-11	CO[C@H]1O[C@H](CO)[C@@H](OC(=O)Nc2cccc(F)c2)[C@H](OC(=O)Nc2ccc3c(c2)OCO3)[C@H]1OC(=O)Nc1ccc2c(c1)OCO2

# Reprinted at random: three records from the list.
Env fusion inh	UUG fidelity	SMILES
16[16.7 µM]	-3	C[C@@H]1CN([C@H](C)CO)C(=O)c2cc(NC(=O)Nc3ccc(C(F)(F)F)cc3)ccc2O[C@@H](C)CCCCO[C@@H]1CN(C)C(=O)c1ccccc1
-3[16.7 µM]	-4	C[C@@H]1CN([C@@H](C)CO)C(=O)c2cc(-c3cccc(C#N)c3)cnc2O[C@H]1CN(C)Cc1ccccc1
12[16.7 µM]	11	Cc1noc(C)c1NC(=O)N(C)C[C@H]1Oc2ccc(NC(=O)NC(C)C)cc2CC(=O)N([C@@H](C)CO)C[C@@H]1C

# Returning to the listing with the 2 entries that preceded the break.
Env fusion inh	UUG fidelity	SMILES
-1[16.7 µM]	5	COCC(=O)N1C[C@@H](C)[C@@H](OC)CN(C)C(=O)c2ccc(NC(=O)Nc3ccccc3)cc2OC[C@@H]1C
0[16.7 µM]	-11	CO[C@H]1O[C@H](CO)[C@@H](OC(=O)Nc2cccc(F)c2)[C@H](OC(=O)Nc2ccc3c(c2)OCO3)[C@H]1OC(=O)Nc1ccc2c(c1)OCO2
12[16.7 µM]	-7	C[C@@H]1CN([C@H](C)CO)C(=O)c2cc(NC(=O)Nc3cccc4ccccc34)ccc2O[C@H]1CN(C)S(=O)(=O)c1ccc(F)cc1
-8[16.7 µM]	-11	C[C@H](NC(=O)C[C@H]1C[C@H]2c3cc(NS(C)(=O)=O)ccc3O[C@H]2[C@H](CO)O1)c1ccccc1
-9[16.7 µM]	-7	COc1ccc(NC(=O)N(C)C[C@@H]2Oc3ccc(NS(=O)(=O)c4ccc(OC)cc4)cc3CC(=O)N([C@H](C)CO)C[C@@H]2C)cc1
-1[16.7 µM]	-10	CCS(=O)(=O)N[C@H]1CC[C@H](CC(=O)Nc2ccc(-c3ccccc3)cc2)O[C@H]1CO
-15[16.7 µM]	10	Cc1ccc(-c2cnc3c(c2)C(=O)N([C@H](C)CO)C[C@@H](C)[C@@H](CN(C)C(=O)c2ccc(F)cc2)O3)cc1
16[16.7 µM]	7	C[C@H]1CCCCO[C@H](CN(C)CC2CCCCC2)[C@@H](C)CN([C@@H](C)CO)C(=O)c2cc(NC(=O)Nc3cccc4ccccc34)ccc2O1
28[16.7 µM]	10	C[C@@H]1CN([C@@H](C)CO)C(=O)c2cccc(NS(=O)(=O)c3ccc(F)cc3)c2O[C@H]1CN(C)Cc1ccc(-c2ccccc2)cc1
7[16.7 µM]	6	CS(=O)(=O)Nc1ccc2c(c1)[C@@H]1C[C@H](CC(=O)NCc3ccncc3)O[C@H](CO)[C@@H]1O2
-11[16.7 µM]	-17	COc1ccc(S(=O)(=O)N(C)C[C@@H]2Oc3ccc(NS(=O)(=O)c4ccccc4)cc3CC(=O)N([C@H](C)CO)C[C@H]2C)cc1
0[16.7 µM]	12	C[C@H]1CN([C@@H](C)CO)C(=O)c2cccc(NC(=O)c3nc4ccccc4s3)c2O[C@H]1CN(C)Cc1ccc(Cl)c(Cl)c1
15[16.7 µM]	14	C[C@@H]1CN([C@H](C)CO)C(=O)Cc2cc(NC(=O)NC3CCCCC3)ccc2O[C@@H]1CN(C)Cc1ccccc1
11[16.7 µM]	7	C[C@@H]1CCCCO[C@@H](CN(C)C)[C@H](C)CN([C@H](C)CO)C(=O)c2cc(NC(=O)c3ccncc3)ccc2O1
-3[16.7 µM]	-2	Cc1ccc(S(=O)(=O)Nc2ccc3c(c2)C(=O)N([C@@H](C)CO)C[C@@H](C)[C@@H](CN(C)S(=O)(=O)c2ccc(C)cc2)O3)cc1
-8[16.7 µM]	-3	C[C@@H]1CN([C@H](C)CO)C(=O)c2cc(NC(=O)C3CC3)ccc2O[C@H]1CN(C)Cc1ccncc1
-17[16.7 µM]	-19	COc1ccc(S(=O)(=O)N[C@@H]2C=C[C@H](CC(=O)NCCc3ccccc3)O[C@@H]2CO)cc1
-50[16.7 µM]	-8	COc1ccc(NC(=O)N(C)C[C@H]2Oc3ccc(NC(=O)Nc4ccc(C(F)(F)F)cc4)cc3CC(=O)N([C@@H](C)CO)C[C@H]2C)cc1
-16[16.7 µM]	-7	C[C@@H]1CN([C@H](C)CO)C(=O)c2cc(C#Cc3ccccn3)cnc2O[C@H]1CN(C)C(=O)CCN1CCCCC1
-5[16.7 µM]	-18	CO[C@H]1CN(C)C(=O)c2cc(NS(=O)(=O)CC(F)(F)F)ccc2OC[C@@H](C)NC[C@@H]1C
-11[16.7 µM]	-17	C[C@H](CO)N1C[C@H](C)[C@H](CN(C)S(=O)(=O)c2cn(C)cn2)Oc2ccc(NC(=O)Cc3ccccc3)cc2CC1=O
4[16.7 µM]	6	CCC(=O)Nc1ccc2c(c1)C(=O)N(C)[C@H]1CC[C@@H](CC(=O)NCC3CC3)O[C@@H]1CO2
-9[16.7 µM]	-3	C[C@@H]1CCCCO[C@@H](CN(C)S(=O)(=O)c2cn(C)cn2)[C@H](C)CN([C@H](C)CO)C(=O)c2cc(NC(=O)c3ccccc3)ccc2O1
6[16.7 µM]	-8	COc1cccc(CNC(=O)C[C@H]2CC[C@H](NC(=O)C3CCC3)[C@H](CO)O2)c1
9[16.7 µM]	-5	C[C@@H]1CN([C@H](C)CO)C(=O)Cc2cc(NC(=O)Nc3ccc(F)cc3)ccc2O[C@@H]1CN(C)S(=O)(=O)c1ccc(Cl)cc1
13[16.7 µM]	-3	C[C@@H]1CN([C@@H](C)CO)C(=O)c2cc(/C=C/c3ccccc3)cnc2O[C@@H]1CN(C)C(=O)C1CCCCC1
6[16.7 µM]	-1	CNC(=O)C[C@H]1CC[C@@H]2[C@@H](COc3ccc(NC(=O)Nc4ccc(C)cc4)cc3C(=O)N2C)O1

# Taken from above.
# Entry for CNC(=O)C[C@H]1CC[C@@H]2[C@@H](COc3ccc(NC(=O)Nc4ccc(C)cc4)cc3C(=O)N2C)O1 in Env fusion inh: 6[16.7 µM]
# Entry for C[C@H]1CN([C@@H](C)CO)C(=O)c2cccc(NC(=O)c3nc4ccccc4s3)c2O[C@H]1CN(C)Cc1ccc(Cl)c(Cl)c1 in Env fusion inh: 0[16.7 µM]
# Entry for CCC(=O)Nc1ccc2c(c1)C(=O)N(C)[C@H]1CC[C@@H](CC(=O)NCC3CC3)O[C@@H]1CO2 in Env fusion inh: 4[16.7 µM]
# Entry for C[C@H](CO)N1C[C@H](C)[C@H](CN(C)S(=O)(=O)c2cn(C)cn2)Oc2ccc(NC(=O)Cc3ccccc3)cc2CC1=O in UUG fidelity: -17
# Entry for Cc1ccc(S(=O)(=O)Nc2ccc3c(c2)C(=O)N([C@@H](C)CO)C[C@@H](C)[C@@H](CN(C)S(=O)(=O)c2ccc(C)cc2)O3)cc1 in Env fusion inh: -3[16.7 µM]

# Continued.
Env fusion inh	UUG fidelity	SMILES
4[16.7 µM]	-5	CCC(=O)N(C)C[C@H]1Oc2ncc(-c3ccccc3OC)cc2C(=O)N([C@@H](C)CO)C[C@@H]1C
7[16.7 µM]	3	COCc1cn(CC[C@H]2CC[C@@H](NC(=O)Nc3c(C)noc3C)[C@@H](CO)O2)nn1
-5[16.7 µM]	0	C[C@H](CO)N1C[C@H](C)[C@H](CN(C)C(=O)c2cccnc2)Oc2cc(C#CC3CC3)ccc2S1(=O)=O
31[16.7 µM]	1	Cc1noc(C)c1NC(=O)N(C)C[C@@H]1OCCCC[C@@H](C)Oc2ccc(NC(=O)c3ccccc3)cc2C(=O)N([C@@H](C)CO)C[C@H]1C
18[16.7 µM]	46	COc1ccc(NC(=O)Nc2ccc3c(c2)C(=O)N([C@@H](C)CO)C[C@H](C)[C@@H](CN(C)Cc2ccccc2)OCCCC[C@H](C)O3)cc1
-2[16.7 µM]	-7	O=C(CN1CCOCC1)NCC[C@@H]1CC[C@@H](NC(=O)c2ccc3c(c2)OCO3)[C@@H](CO)O1
-14[16.7 µM]	9	C[C@@H]1CCCCO[C@H](CN(C)C(=O)c2ccccc2)[C@@H](C)CN([C@H](C)CO)C(=O)c2cc(NC(=O)CCC(F)(F)F)ccc2O1
-7[16.7 µM]	-15	CCC(=O)Nc1ccc2c(c1)C(=O)N(C)C[C@H](OC)[C@H](C)CN(CCC(F)(F)F)[C@H](C)CO2
-5[16.7 µM]	17	C[C@@H]1CCCCO[C@H](CN(C)Cc2ccc(C(=O)O)cc2)[C@H](C)CN([C@@H](C)CO)C(=O)c2cc(NC(=O)Cc3ccccc3)ccc2O1
-18[16.7 µM]	12	C[C@H](CO)N1C[C@H](C)[C@@H](CN(C)Cc2ccccc2)Oc2c(NC(=O)Nc3ccccc3)cccc2C1=O
17[16.7 µM]	3	CCCC#Cc1cnc2c(c1)C(=O)N([C@H](C)CO)C[C@@H](C)[C@@H](CN(C)S(=O)(=O)c1ccccc1)O2
7[16.7 µM]	8	C[C@H]1CN([C@@H](C)CO)S(=O)(=O)c2ccc(-c3ccccc3)cc2O[C@H]1CN(C)Cc1cncnc1
1[16.7 µM]	-7	COCc1cn(CC[C@@H]2CC[C@@H](NC(=O)Nc3ccc(F)cc3)[C@@H](CO)O2)nn1
17[16.7 µM]	-11	Cn1cnc(S(=O)(=O)N2C[C@H](O)COC[C@@H]3O[C@H](CC(=O)N4CCN(c5ccccc5)CC4)CC[C@H]32)c1
7[16.7 µM]	3	C[C@@H]1CN([C@@H](C)CO)C(=O)c2cc(NC(=O)c3ccncc3)ccc2O[C@H]1CN(C)C(=O)Nc1cccc2ccccc12
